# Assay outcomes from PubChem BioAssay.
# TRPML1 agonist: qHTS for Agonists of the Human Mucolipin Transient Receptor Potential 1 (TRPML1) | Mucolipin-1 (Homo sapiens), Q9GZU1 | TRPML1-expressing cells, Ca2+ dye fluorescence, FDSS; host cell line not named in the record; reference of the full effect not given here | activation, % (no concentration beside the values) | 410,000 tested, 0.12% active | AID 624414, 2012; in the data active = activation above about 50%; inconclusive = about 30% to 50%; inactive = below about 30%; note: 0% is about no effect; the text of the record puts the active cut at 80%
#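 Tet-induced TRPML1-DL cells, 1,500 per well, cultured overnight, were loaded with a no-wash Ca2+ dye for 45–90 min. Calcium fluorescence was recorded on the FDSS for 110 s after compound addition, before the EC80 agonist (4 uM 54-4) was added.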
# TRPML1 inh: qHTS for Inhibitors of the Human Mucolipin Transient Receptor Potential 1 (TRPML1); activity change, negative = inhibition, % (no concentration beside the values); TRPML1-inducible cells, Ca2+ dye fluorescence, FDSS; active compounds read low; inhibition of EC80 agonist-evoked calcium signal; AID 624415, 2012; 390,000 tested, 0.02% active; in the data active means activity change below about -50%; inconclusive means about -30% to -50%; inactive means above about -30%;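 note: stimulus is agonist 54-4 at its EC80 concentration; % is set by controls: 0 for no effect and ±100 for the full control effect; compound concentration not given in the record; the text of the record puts the active cut at -80%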
#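 Calcium fluorescence in TRPML1-DL cells induced overnight with Tet: a 110 s read after compound pin addition, then a 110 s antagonist read after challenge with 54-4 at 4 uM final (EC80).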
# PINK1 expr mod: A Quantitative High throughput Screen to Identify Chemical Modulators of PINK1 Expression | PINK1 immunofluorescence, high-content cytometry, 24 h | Potency, µM (series often up to 76.6 µM), without a hit: top-dose activation (PINK1 increase), usual class: activators | 410,000 tested, 0.2% active | AID 624263, 2012; active = well fitted activation curve with a large enough effect; inconclusive = small, poorly fitted or top-dose-only effect; inactive = flat fitted curve, though single readings scatter; cell line not stated here;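 note: potency is the fitted concentration of half-maximal effect; % of control where 0% means no effect; nearly all actives have a fitted effect of over 65% in size; a mitochondrial uncoupler was the plate control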
#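 Compound titrations (5 concentrations, 24 h) on a stable cell line; DMSO and CCCP controls. Endpoint: fixed-cell PINK1 immunofluorescence with mitochondrial, cell and nuclear markers, scanned by microplate cytometer.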
# D2 ag: Beta-Arrestin HTS for Positive Allosteric Modulators of the Human D2 Dopamine Receptor: Agonists. D(2) dopamine receptor (Homo sapiens), P14416. DiscoveRx PathHunter D2 beta-arrestin, luminescence, 90 min; 100% = 57 uM dopamine signal. activation, % (test concentration not listed). 360,000 tested, 0.084% active. AID 624465, 2012; in the data active = activation above about 40%; inconclusive = about 15% to 40%; inactive = below about 15%; note: compound concentration not given in the record; the text of the record calls up to 30% inactive
#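 DiscoveRx PathHunter D2 beta-arrestin cells (2,100/well) attached overnight, then compound-stimulated 90 min at 37 C in HBSS/10 mM HEPES/0.1% Tween-20 buffer; beta-galactosidase complementation read by luminescence after 1 h at ambient temperature. Dopamine 57 uM final (EC100) as control.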
# Six1-Eya2 inh: qHTS Assay for Inhibitors of the Six1/Eya2 Interaction | activity change, % (no concentration beside the values) | 360,000 tested, 0.56% active | AID 651725, 2012 | Homeobox protein SIX1 (Homo sapiens) + Protein phosphatase EYA2 (Homo sapiens), … | AlphaScreen GST-Six1/His-Eya2 binding, biochemical; active compounds read low; control for the full effect not named in the record; in the data active = activity change below about -65%; inconclusive = about -30% to -65%; inactive = above about -30%; note: % is set by controls: 0 for no effect and ±100 for the full control effect
# Target sequence (O00167 whole entry, looked up): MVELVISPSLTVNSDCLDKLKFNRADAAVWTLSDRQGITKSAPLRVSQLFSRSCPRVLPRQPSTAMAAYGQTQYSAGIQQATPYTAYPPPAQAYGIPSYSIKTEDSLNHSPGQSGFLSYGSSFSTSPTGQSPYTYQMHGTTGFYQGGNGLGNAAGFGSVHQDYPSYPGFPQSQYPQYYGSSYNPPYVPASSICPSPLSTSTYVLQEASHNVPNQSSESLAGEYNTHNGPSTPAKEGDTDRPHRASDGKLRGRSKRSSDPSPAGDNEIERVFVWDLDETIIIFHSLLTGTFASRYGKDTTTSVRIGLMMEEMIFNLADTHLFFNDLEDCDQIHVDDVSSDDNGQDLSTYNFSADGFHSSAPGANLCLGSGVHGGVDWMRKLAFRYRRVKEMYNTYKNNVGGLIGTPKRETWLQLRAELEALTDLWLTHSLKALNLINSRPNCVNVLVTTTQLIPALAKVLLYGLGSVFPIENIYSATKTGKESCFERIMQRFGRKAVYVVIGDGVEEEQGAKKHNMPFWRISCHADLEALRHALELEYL
# Target sequence (Q15475 whole entry, looked up): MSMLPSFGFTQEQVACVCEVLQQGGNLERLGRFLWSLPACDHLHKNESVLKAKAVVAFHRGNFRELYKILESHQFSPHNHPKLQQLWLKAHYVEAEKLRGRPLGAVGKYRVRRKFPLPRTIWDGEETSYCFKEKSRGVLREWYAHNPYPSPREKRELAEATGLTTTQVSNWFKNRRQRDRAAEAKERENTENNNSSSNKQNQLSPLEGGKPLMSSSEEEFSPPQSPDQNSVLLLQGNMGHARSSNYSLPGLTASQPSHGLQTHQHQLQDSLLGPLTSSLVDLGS
#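 GST-Six1 + His-Eya2 (5X stock: 250/500 nM); Tris pH 8.0, 300 mM NaCl, 0.05% BSA, 0.02% Tween 20; GSH donor/Ni acceptor beads; 1 h 37 °C dark; AlphaScreen readout.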
# CtBP-E1A inh: qHTS Assay for Inhibitors of the CtBP/E1A Interaction | AlphaScreen GST-E1A/His-CtBP binding, 1536-well; active compounds read low; control for the full effect not named in the record | 340,000 tested, 0.49% active | activity change, % (concentration not given with the values); in the data active means activity change below about -65%; inconclusive means about -30% to -65%; inactive means above about -30%; note: % is set by controls: 0 for no effect and ±100 for the full control effect
#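 Protein mix (5X: 125 nM each GST-E1A, His-CtBP) was incubated with pinned compound 2 h at 37 deg C in dark, in 50 mM Tris pH 8.0 buffer with 300 mM NaCl. Glutathione donor and nickel acceptor beads followed; AlphaScreen signal read after 1 h.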
# An asterisk follows results filed as active; . = not tested or not shown; [ ] = another dose, or the depositor's remark.
SMILES,TRPML1 agonist,TRPML1 inh,PINK1 expr mod,D2 ag,Six1-Eya2 inh,CtBP-E1A inh
CCC(C(=O)NC1CCCC1)N(C(=O)Cn1nnc(-c2ccc(C)cc2)n1)C1CCCC1 (stereo not given),-0.9,-16,2.1%,-3.4,-3,2
C=C[C@@H]1c2c(F)cccc2N(S(=O)(=O)c2ccc(C)cc2)[C@H](c2ccc(OC(C)=O)cc2)C1(C#N)C#N,1.1,-12,5.6%,-9.4,-5,-3
CC(CN1CCN(c2ccccc2)CC1)c1ccccc1 (stereo not given),-1.0,-9,1.1%[38.3 µM],12,-10,-17
COc1cc2c(cc1OC)C(C)N(CCN1C(=O)c3ccccc3C1=O)CC2 (stereo not given),-0.6,-1,0.9%,-2.3,1,.
CC(NC(=O)COC(=O)c1ccccc1O)c1ccccc1 (stereo not given),-0.6,-10,-0.5%,-4.2,3,4
COC(=O)c1cc2sc(Cl)cc2n1Cc1cc(C)ccc1C,0.1,-11,5.6%,.,.,.
CC1CCCCC1NC(=O)C1CCN(c2c3c(nc4ncnn24)CCC3)CC1 (stereo not given),-0.6,3,3.4%,-3.6,-7,4
O=C(Nc1nncs1)C12CC3CC(CC(Cl)(C3)C1)C2,0.0,28,2.1%,2.5,5,-6
CCOc1cc(CN2CCN(c3cccc(C(F)(F)F)c3)CC2)ccc1OC,2.3,16,.,2.9,-14,9
COCCn1c(SCc2nnc(-c3ccc(OC)c(OC)c3)o2)nnc1-c1ccncc1,0.4,-7,0.6%,3.0,19,0
COc1ccc(-c2cc(C(F)(F)F)c(C#N)c(SCC(=O)Nc3ccc(F)cc3)n2)cc1,1.5,11,1.5%,.,.,.
COc1cccc(-c2cc(N3CCN(C(=O)c4ccoc4)CC3)n3nc(-c4cccc(Cl)c4)cc3n2)c1,.,.,0.9%,0.0,3,-25
Cc1ccc(C)c(N2N=C(C(=O)N(CC(C)C)c3c(N)n(Cc4ccccc4)c(=O)[nH]c3=O)CCC2=O)c1,0.0,-12,0.5%,-0.1,-3,2
CCCOC(=O)c1ccc(S(N)(=O)=O)o1,-0.3,-19,6.0%,-1.6,9,7
Cc1cc(C)c(C(=O)c2cccs2)c(C)c1,-0.4,5,2.4%,0.0,9,24
c1cncc(-c2noc(-c3ccco3)n2)c1,-1.2,38,0.2%,-1.9,-2,-2
COC(=O)c1c(C)oc(C)c1S(=O)(=O)NCC1CC1,-0.6,12,0.4%,-6.9,-12,-1
COC(=O)c1c(CSc2ccc(Cl)cc2)noc1C(=O)NCc1ccco1,1.3,22,1.5%,2.8,-6,.
CN(C(=O)CSc1nncn1-c1ccccc1)c1ccccc1,-0.4,8,-1.1%,-2.3,0,-3
Cc1cccc(-c2noc(CCCC(=O)NCc3ccco3)n2)c1,0.3,-4,2.0%,.,.,.
O=C(NC1CCCCC1)c1cccnc1Sc1ccccc1Cl,-0.5,5,-0.6%,-2.3,-2,9
Cn1c(Cn2c(=O)sc3ccccc32)nnc1SCc1cccc(F)c1,0.1,16,-0.2%,2.3,5,-5
CC1(C(=O)NS(=O)(=O)c2ccc(Cl)cc2)CCN1C(=O)c1ccccc1CCc1ccccc1 (stereo not given),-0.5,-5,-0.9%,-0.8,5,-15
O=C(COCC(=O)N/N=C/c1ccccc1F)N/N=C/c1ccccc1F,-1.2,-25,0.1%,-1.2,3,11
CC(C)N(CCc1ccncc1)C(=O)Nc1ccc(F)cc1,-0.8,2,0.6%,-2.6,-3,4
CCOC(=O)/C(=N\NC(=O)c1ccccc1)c1ccccc1,0.8,-11,-0.3%[38.3 µM],-2.5,10,8
Cc1ccc(-c2ccc(/C=C/C(=O)c3ccccc3)o2)cc1,1.9,17,15%,0.1,1,8
Cc1ccc(NC(=S)NCCN2CCOCC2)cc1,-1.2,-13,1.7%,-1.5,2,12
CCOc1ccc(S(=O)(=O)N2CCC(C(=O)N3CCN(c4ccccc4F)CC3)CC2)cc1C,2.2,-2,1.5%,-2.7,-6,-5
CC(C)CC(N=C1NC(C)(C)Cc2ccccc21)C(=O)O (stereo not given),-0.2,5,-0.3%[38.3 µM],1.3,4,0

# In a second layout: entries from further up
> CCCOC(=O)c1ccc(S(N)(=O)=O)o1
  TRPML1 agonist: -0.3 | TRPML1 inh: -19 | PINK1 expr mod: 6.0% | D2 ag: -1.6 | Six1-Eya2 inh: 9 | CtBP-E1A inh: 7
> Cc1cccc(-c2noc(CCCC(=O)NCc3ccco3)n2)c1
  TRPML1 agonist: 0.3 | TRPML1 inh: -4 | PINK1 expr mod: 2.0% | D2 ag: . | Six1-Eya2 inh: . | CtBP-E1A inh: .

# Continued:
SMILES,TRPML1 agonist,TRPML1 inh,PINK1 expr mod,D2 ag,Six1-Eya2 inh,CtBP-E1A inh
OC(COc1cccc(OCC(O)CN2CCCC2)c1)CN1CCCC1 (stereo not given),-0.2,-5,.,-0.2,-1,9
O=C(c1ccc(NC(=O)C2(c3ccccc3)CCCC2)cc1)N1CCOCC1,0.5,3,1.1%,-1.8,0,-8
Cc1nnc(NC(=O)CSc2nc3c([nH]c4ccccc43)c(=O)n2-c2cccc(Cl)c2)s1,1.1,44,0.1%,.,.,.
COc1ccc(OC)c(NC(=O)N2CCN(S(=O)(=O)c3ccc4c(ccn4C)c3)CC2)c1,0.9,5,-1.5%,.,.,.
CC(C)Cn1c(-c2ccc(S(=O)(=O)N3CCOCC3)cc2)csc1=Nc1cc(Cl)ccc1Cl,-0.7,-8,2.2%,.,.,.
c1ccc(-c2nn3c(-c4ccccc4)nnc3s2)cc1,0.2,1,3.4%[38.3 µM],-1.3,-2,5
O=C(Nc1cc([N+](=O)[O-])ccc1N1CCCC1)c1cccs1,1.9,-8,-1.5%,-4.2,-5,0
Cc1ccccc1NC(=O)C1CCN(C2=NS(=O)(=O)c3ccccc32)CC1,-0.5,-11,-0.3%,-4.1,23,-10
CCC1CCCCN1C(=O)COc1ccc2c3c(c(=O)oc2c1)CCC3 (stereo not given),0.3,10,0.5%,-1.9,-12,-1
COc1ccc(F)cc1S(=O)(=O)N1CCCCC1,0.9,9,3.6%,1.4,0,7
COc1ccc(C(O)c2nc(-c3ccc(OC)nc3)cs2)cc1 (stereo not given),-0.8,.,1.1%,7.9,0,2
CCOC(=O)c1c(C)[nH]c(C)c1S(=O)(=O)NCC(=O)Nc1cccc(C(F)(F)F)c1,-1.4,-6,0.5%,.,.,.
CCC(=O)N1CCN(c2ccc(NC(=S)NC(=O)C(C)C)cc2)CC1,1.2,16,-1.0%,-1.2,15,-5
COCCN(C(=O)CC1OC(=O)c2ccccc21)c1c(N)n(Cc2ccccc2)c(=O)[nH]c1=O (stereo not given),-0.2,-9,-0.3%,-2.2,3,.
CCOc1ccc(OCc2ccc(C(=O)Nc3cccnc3)cc2)cc1,-0.5,-3,8.9%,-3.0,2,.

# Already shown: four of the compounds above.
SMILES,TRPML1 agonist,TRPML1 inh,PINK1 expr mod,D2 ag,Six1-Eya2 inh,CtBP-E1A inh
CCC(C(=O)NC1CCCC1)N(C(=O)Cn1nnc(-c2ccc(C)cc2)n1)C1CCCC1 (stereo not given),-0.9,-16,2.1%,-3.4,-3,2
C=C[C@@H]1c2c(F)cccc2N(S(=O)(=O)c2ccc(C)cc2)[C@H](c2ccc(OC(C)=O)cc2)C1(C#N)C#N,1.1,-12,5.6%,-9.4,-5,-3
CC(CN1CCN(c2ccccc2)CC1)c1ccccc1 (stereo not given),-1.0,-9,1.1%[38.3 µM],12,-10,-17
COc1cc2c(cc1OC)C(C)N(CCN1C(=O)c3ccccc3C1=O)CC2 (stereo not given),-0.6,-1,0.9%,-2.3,1,.

# Given with each value named: 2 of the compounds above
O=C(Nc1cc([N+](=O)[O-])ccc1N1CCCC1)c1cccs1
  TRPML1 agonist: 1.9 | TRPML1 inh: -8 | PINK1 expr mod: -1.5% | D2 ag: -4.2 | Six1-Eya2 inh: -5 | CtBP-E1A inh: 0
CC(C)Cn1c(-c2ccc(S(=O)(=O)N3CCOCC3)cc2)csc1=Nc1cc(Cl)ccc1Cl
  TRPML1 agonist: -0.7 | TRPML1 inh: -8 | PINK1 expr mod: 2.2% | D2 ag: . | Six1-Eya2 inh: . | CtBP-E1A inh: .

# Further entries:
SMILES,TRPML1 agonist,TRPML1 inh,PINK1 expr mod,D2 ag,Six1-Eya2 inh,CtBP-E1A inh
O=C(CCNS(=O)(=O)c1ccccc1F)NC1CCCCCC1,-0.3,11,-1.3%,-0.3,6,1
CSc1ncccc1C(=O)Nc1nccs1,-0.9,-4,-2.5%,0.0,0,0
C[C@H](CO)N1C[C@H](C)[C@@H](CN(C)C(=O)NC2CCCCC2)Oc2c(NS(=O)(=O)c3ccc(F)cc3)cccc2C1=O,-0.1,1,1.8%,-1.0,31,4
Cc1ccc(N/N=C/C=C/c2ccco2)cc1,-0.1,-13,6.4%,14,-1,-4
CCN(CC)c1cc(C)c2cc(NC(=O)c3ccc(Br)o3)ccc2n1,0.2,7,-2.5%,-0.5,-23,-21
CCCCNC(=O)C1(C)CCN1C(=O)c1ccc2c(c1)C(C)(C)CCC2(C)C (stereo not given),-1.0,.,7.3%,-5.3,2,1
O=S(=O)(/N=C/c1ccccc1O)c1cccs1,0.2,0,2.1%[38.3 µM],0.1,2,1
N#Cc1ccccc1OCC(=O)N1CCN(C(=O)c2ccco2)CC1,-0.4,-6,0.3%,-5.1,2,-1
CCOC(=O)c1c[nH]c2c(C(F)(F)F)cccc2c1=O,0.1,-23,0.8%,0.8,3,-1
CCOC(=O)Cn1c(CN(C)Cc2ccccc2)nc2c1c(=O)n(C)c(=O)n2C,-0.7,5,1.1%,-1.7,-3,2
Cc1ccc(C(=O)COC(=O)c2ccccc2NC(=O)c2ccccc2)cc1[N+](=O)[O-],-0.1,14,3.2%,-0.2,-13,-9
O=C(CC1C(=O)NCCN1Cc1ccccc1)NCCC1=CCCCC1 (stereo not given),-0.4,1,-0.7%,0.8,-3,-4
Clc1cccc(Cl)c1/C=C/c1nc2ccccc2[nH]1,2.2,-9,12%[38.3 µM],-1.1,11,13
Cc1ccc2nc(N3C(=O)C(O)=C(C(=O)c4cc5ccccc5o4)C3c3cccs3)sc2c1 (stereo not given),0.5,-6,0.2%,-9.7,-11,-2
COc1cc2c(cc1OC)C(C(=O)NCC1COc3ccccc3O1)C(c1cccnc1)N(C)C2=O (stereo not given),6.1,-7,-0.5%,2.3,0,2
O=C(CN(CCc1ccccc1)S(=O)(=O)c1ccc(Cl)cc1)N/N=C/c1ccccc1C(=O)O,2.4,7,0.6%,-6.7,-6,.
CC1CCC2(CC1)NC(=O)N(CC(=O)c1ccc(Cl)s1)C2=O (stereo not given),0.1,-21,-1.4%,-2.1,1,-3
